# High-throughput results (PubChem)
# AID504770 – growth inhibitors of E. coli YBA685 in a screen for V. cholerae RctB (chromosome II replication) inhibitors; AID 504770; z-score (no concentration beside the values); E. coli YBA685 rctB-dependent plasmid, OD600 growth, 3 h; hits give low values; actives 0.27% (n = 130,000);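 active = z-score under -2 on both plates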;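 note: wells of about 30 µL received 100 nL stock; score is relative to mean and SD of the test wells; the first replicate is given; strong numbers were not always called active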
# Ba CapD inh – inhibitors of Bacillus anthracis CapD enzyme; AID 492967; z-score (concentration not given with the values); purified CapD enzyme, fluorescence intensity read-out; hits give low values; some hits fall short of the stated cut; actives 0.23% (n = 140,000);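 active = z-score under -4 in either of two replicates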;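 note: stock transfer was 100 nL into about 40 µL; score is relative to mean and spread of the plate; one replicate is shown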
# * marks the source's active call; other numbers are inactive results; i = inactive; x = not tested or not shown.
SMILES	AID504770	Ba CapD inh
CC1=NN(c2ccccc2)C(=O)/C1=C\c1c(O)[nH]c(=O)[nH]c1=O	-0.8	x
NC(=O)c1oc2ccccc2c1NC(=O)C(c1ccccc1)c1ccccc1	2.3	0.895
Cn1c(=O)c(=O)n(C)c2ncccc21	0.4	5.6
CN1C(=O)CC(C(=O)Nc2ccc(C(=O)O)cc2)SC1=Nc1cccc(C(F)(F)F)c1 (stereo not drawn)	x	-0.195
COc1ccc(F)cc1C(=O)CSc1nc2c3ccccc3ncn2n1	0.1	x
CCOc1ccc(NC(=O)NC2CCN(c3ncccn3)CC2)cc1	-0.6	0.735
CN(C)/C=N/c1sc2c(c1C#N)CC(C)(C)NC2(C)C	-0.7	-2.33
Cc1cccc(-n2c(-c3ccc(Br)cc3)cn3c4c(=O)n(C)c(=O)n(C)c4nc23)c1	x	-0.6
O=C(Nc1ncc(Cc2cccc(C(F)(F)F)c2)s1)c1sc2ccccc2c1Cl	x	3.03
N#CC1(C#N)C(c2cccnc2)C(C(=O)c2ccccc2)N2c3ccccc3C=CC21 (stereo not drawn)	-1.05	3.1
CC(C)COc1cccc(OCC(=O)O)c1	-0.05	i
Cc1nn(C)c(Sc2ccc(Cl)cc2)c1C(N)=O	0.4	-0.325
Cc1ccc(C)n1-c1ccc(C(=O)NCC(=O)O)cc1	-0.6	x
Cc1ccc(NS(C)(=O)=O)cc1N=Cc1ccc(N(C)C)cc1	x	-1.04
Cc1ccc(C(=O)n2ncn(C)c2=S)cc1	0	x
COc1ccc(/C=c2\sc3nnc(-c4ccccc4)n3c2=O)c(OC)c1	x	-0.22
Cc1ccc(/C=N/NC(=O)CC2Sc3ccccc3NC2=O)cc1 (stereo not drawn)	x	0.9
CC(C)(C)c1ccc(O)c(N)c1	-0.05	-0.71
Cc1ccc(C2C(S(C)(=O)=O)=C(O)C(=O)N2c2ccccc2)cc1 (stereo not drawn)	1.4	-0.705
CCC/C(O)=C1\C(=O)CC(C)(C)CC1=NCCc1ccc(OCC)c(OCC)c1	-0.8	0.485
CCN1C(=O)C2Cc3cc(OC)c(OC)cc3CN2C1=S (stereo not drawn)	0.8	0.405
CCC(C(=O)Nc1ccc(C(F)(F)F)cc1)c1ccccc1 (stereo not drawn)	x	0.48
CN(C(=O)c1cccs1)C1CC2C=CC1C2 (stereo not drawn)	x	0.315
CCOc1cc(C=C2C(=O)NC(=O)NC2=O)cc(Cl)c1OC(=O)c1ccc(OC)cc1	x	0.24
O=S(=O)(c1ccccc1)N1CCN(S(=O)(=O)c2ccccc2)CC1	0.65	0.28
CCOC1(O)C(=O)c2ccccc2C(=O)C1(O)OCC (stereo not drawn)	-1.25	-1.75
CC(=O)OC[C@H]1OC[C@H](OC(C)=O)[C@@H](OC(C)=O)[C@H]1OC(C)=O	-0.3	0.815
CN1CCN(c2ccc(NC(=O)CSc3ccc(Cl)cc3)cc2F)CC1	x	-0.11
CN(C(=O)c1ccccc1C(=O)O)C1CC(C)(C)NC(C)(C)C1	-0.65	0.28
Cc1ccc(NCCNc2ccc(C)cc2C)c(C)c1	0.25	x

# 3 of these compounds in a different format:
# Sequence of screens – AID504770	Ba CapD inh
COc1ccc(/C=c2\sc3nnc(-c4ccccc4)n3c2=O)c(OC)c1
→ x	-0.22
CCOc1cc(C=C2C(=O)NC(=O)NC2=O)cc(Cl)c1OC(=O)c1ccc(OC)cc1
→ x	0.24
Cc1ccc(NCCNc2ccc(C)cc2C)c(C)c1
→ 0.25	x

# Next section
SMILES	AID504770	Ba CapD inh
CC(C)(CC(=O)NC1CCN(Cc2ccccc2)CC1)Sc1ccc(Cl)cc1	0.45	0.385
O=C(O)C1C2C(=O)OC3C(Cl)C1C1(CC1)C32 (stereo not drawn)	x	6.17
CC1CC(C)CN(C(=O)c2cc(N(C)S(=O)(=O)c3ccccc3)ccn2)C1 (stereo not drawn)	-0.15	-0.425
O=C(Nc1ccccc1)C1Cc2ccccc2CN1C(=O)c1ccco1 (stereo not drawn)	-0.25	x
COc1cc(C=C2C(=O)NC(=O)NC2=O)ccc1OCCOc1ccc([N+](=O)[O-])cc1	x	-0.655
Cc1ccc(N=C2NC(=O)C(CC(=O)Nc3ccc(OC(F)(F)F)cc3)S2)cc1 (stereo not drawn)	-0.35	-0.37
N#Cc1cc[n+](CC(=O)c2cccs2)cc1	-0.9	x
CC(=O)c1cccc(NC(=O)c2ccc(N3CC4CC(C3)c3cccc(=O)n3C4)c(NC(=O)c3c(F)cccc3F)c2)c1 (stereo not drawn)	x	-0.295
C=C(C)C1CCC(C)OC1c1ccccc1 (stereo not drawn)	-0.8	-0.32
COc1ccccc1N1CCN(C(=O)C(C)N2C(=O)c3ccccc3C2=O)CC1 (stereo not drawn)	0.55	0.03
O=C1CN(O)C(c2ccccc2Cl)=c2cc(Br)ccc2=N1	x	-0.25
NS(=O)(=O)c1ccc(NS(=O)(=O)c2cccc(C(F)(F)F)c2)cc1	0.75	0.96
O=C(/C=C/c1ccccc1)Nc1nc(-c2ccc3c(c2)OCCO3)cs1	0.7	-1.19
CN(Cc1ccco1)C(=O)c1ccc(N2CCCC2=O)cc1	-0.9	-0.265
O=C(OCc1nc2ccccc2[nH]1)C1CCCCC1	0.5	x
COc1ccc(OC)c(S(=O)(=O)Nc2cccc(Br)c2)c1	x	-0.095
Cc1cc(N2CCC3(CC2)OCCO3)n2nc(C)c(-c3ccc(Cl)cc3)c2n1	-0.5	0.255
CCOC(=O)c1c(-c2ccccc2)oc2ccc(OCC(=O)NN)cc12	-0.65	29.8
CNC(=O)CCC(=O)Nc1ccc(C)cc1	1.4	x
CC(C)(C)c1cc(CCOC(=O)CCc2cc(C(C)(C)C)c(O)c(C(C)(C)C)c2)cc(C(C)(C)C)c1O	x	0.16
C(=Nn1cncn1)c1ccc(N2CCOCC2)cc1	-0.25	-0.77
O=C1CN(O)C(c2ccccc2)=c2cc(Br)ccc2=N1	x	-0.355
COCc1cc(C)nc(SCC(=O)Nc2ccc(C)c(C)c2)c1C#N	x	0.715
Nc1ncnc(Nc2ccccc2F)n1	x	0.685
O=c1nc2c(-c3cccc(Cl)c3)n[nH]n2c2ccccc12	-0.7	x
CCCSC1=C(C#N)C(c2cc(OC)ccc2OC)CC(=O)N1 (stereo not drawn)	-0.15	-0.235
COC(=O)C1=C(C)NC(C)=C(C(=O)OC)C1c1cn(-c2ccccc2)nc1-c1ccc([N+](=O)[O-])cc1	x	-0.5
O=c1cc(-c2ccccc2)nc(-c2ccccc2)o1	0.95	-1.42
COc1cc(C(F)(F)F)cc(C(F)(F)F)c1C(=O)Nc1cc(C(F)(F)F)cc(C(F)(F)F)c1	x	-0.925
CCCSC1=C(N(C)C)C(=O)c2ccccc2C1=O	1.7	x
COC(=O)C1=CN(Cc2ccc(F)cc2)C=C(C(=O)OC)C1c1ccc2c(c1)OCO2	-0.5	94.3
CCOC(=O)c1c(C)csc1NC(=O)CC#N	2.45	2.85
CCOC(=O)c1cc(Oc2nc(C)nc3sc4c(c23)CCCC4)cc(C(=O)OCC)c1	-1.35	4.85
CNC(=O)O/N=C/c1ccc(F)c(Cl)c1	-0.1	-0.675
O=C(c1ccc(-n2ccnc2)cc1)c1ccc(-n2ccnc2)cc1	-0.7	-0.02
COc1ccc(CN2CCN(S(=O)(=O)c3cccc4nonc34)CC2)cc1Br	x	-1.03
O=C(CNC(=O)C1CCCCC1)NC1=NCCS1	-0.1	x
NS(=O)(=O)c1ccc(NNC(=O)CCc2ccccc2)cc1	-0.7	-0.85
O=C(CSc1nnc(NC2CC2)s1)N1CCCCC1	0.25	x
CCOC(=O)c1cnc2c(C)cc(C)cc2c1Nc1cccc2ccccc12	x	0.055
Cc1cc2nnc(SCC(=O)N(C)C)n2c2ccccc12	-0.2	2.53
CCCCCC1=C(O)c2ccccc2C(=O)C1=O	-0.35	-1.08
CCCCn1c(N)c(N(CCC(C)C)C(=O)c2ccccc2F)c(=O)[nH]c1=O	0.35	x
FC(F)(F)c1cc(C(F)(F)F)c2ccc(N3CCNCC3)nc2n1	x	21.2
COC(=O)C1=C(C)NC2=C(C(=O)CC(c3ccco3)C2)C1c1ccccc1Br (stereo not drawn)	-0.05	46
Cc1cc(-c2nnco2)c(C)n1-c1ccccc1	-1.4	-0.17
OC1CNc2c(ccc3ccccc23)C1 (stereo not drawn)	-0.4	x
Cn1ccnc1SC(F)(F)C(=O)c1cnc2ccccn12	0.7	-0.025
Cc1cc(=O)[nH]c(-c2ccccc2OC(F)(F)F)n1	-0.35	-0.625
CCCn1c(CCCNC(=O)C(C)(C)C)nc2ccccc21	0.45	-0.275
N#CC(c1ccc(C(=O)c2ccccc2)cc1)c1cccs1 (stereo not drawn)	-0.4	-0.215
Oc1ccc(Br)cc1CN1CCN(Cc2ccccc2F)CC1	-0.45	0.03
COc1ccc2[nH]c(C)cc(=S)c2c1	0.1	-0.28
COc1ccc(C2CC(c3ccc(OC)c(OC)c3)=NN2C(C)=O)cc1 (stereo not drawn)	x	56.3
Cc1c(Cl)cn2c(=O)cc(CN3CCN(c4ccccc4O)CC3)nc2c1Cl	0.5	x
Cc1noc(C)c1NC(=O)NCCOc1ccccc1	-0.3	0.465
O=C(c1ccccc1)c1cnc(-c2ccccc2)s1	-0.45	-0.485
Cc1cc2cc(CNC(=O)c3ccc4c(c3)OCO4)ccc2n1C	0.5	0.135
CC(C)(C)C(=O)COC(=O)c1ccc2c(c1)OCCO2	0.3	x
O=c1c2c(ncn2C2CCCC2)n(Cc2ccccc2)c(=O)n1Cc1ccccc1	0.7	x

# Next section.
SMILES	AID504770	Ba CapD inh
O=C(COC(=O)C1CCN(c2ccc(C(F)(F)F)cn2)CC1)NCc1ccccc1	1.85	x
COc1ccc(OCC(=O)Nc2ncccn2)cc1	-0.75	-0.25
CSc1nc(COc2ccc(C(C)(C)C)cc2)nc(N)c1C#N	-0.25	9.28
Cc1ccc(-n2ncc3c(NCc4ccco4)ncnc32)c(C)c1	0.05	-0.075
CCOC(=O)c1ccc(-c2ccc(C3Nc4ccc5ccccc5c4C4=C3C(=O)CC(C)(C)C4)o2)cc1 (stereo not drawn)	x	2.7
O=C(O)c1cc(-c2cccs2)nc2cc3c(cc12)OCCO3	0	71.6
NC(=S)N/N=C/c1cc2c(s1)-c1cc(Cl)ccc1OC2	x	6.28
CCOC(=O)c1c[nH]c2c(C)c(Cl)ccc2c1=O	-0.95	-0.63
CCN(CC(=O)Nc1ccc2c(c1)OCCO2)c1nc(-c2cccnc2)nc2ccccc12	1.05	x
CCCCC(C(=O)OCCC)N1C(=O)C2C3c4ccccc4C(c4ccccc43)C2C1=O (stereo not drawn)	x	0.235
O=C(CC(c1ccco1)S(=O)(=O)c1ccccc1)c1ccc(Cl)cc1 (stereo not drawn)	1.05	-0.41
CCCOc1ccc(S(=O)(=O)n2cc(Br)c(=O)[nH]c2=O)cc1	0.2	0.12
CCOC(=O)C1CCN(CCC(C)(C)c2ccc(C)o2)CC1	-0.9	0.275
c1ccc(OCC2=NNC(c3ccccc3)=Nc3ccccc32)cc1	x	-0.165
O=C(c1ccc(Oc2ccccc2)cc1)N1CCN(c2ccccn2)CC1	0.55	0.495

# 4 entries from above, reformatted:
Molecule: CCCCC(C(=O)OCCC)N1C(=O)C2C3c4ccccc4C(c4ccccc43)C2C1=O (stereo not drawn)
  AID504770: x | Ba CapD inh: 0.235

Molecule: O=C(CC(c1ccco1)S(=O)(=O)c1ccccc1)c1ccc(Cl)cc1 (stereo not drawn)
  AID504770: 1.05 | Ba CapD inh: -0.41

Molecule: CCCOc1ccc(S(=O)(=O)n2cc(Br)c(=O)[nH]c2=O)cc1
  AID504770: 0.2 | Ba CapD inh: 0.12

Molecule: CCOC(=O)C1CCN(CCC(C)(C)c2ccc(C)o2)CC1
  AID504770: -0.9 | Ba CapD inh: 0.275

# Further entries follow:
SMILES	AID504770	Ba CapD inh
CCOC(=O)N1CCC2(CC1)C(C#N)=C(N)Oc1c2c(C)nn1-c1cccc(Cl)c1	-0.85	0.415
O=C(O)CS(=O)(=O)/C=C/c1ccccc1	x	0.26
C/C(=N/OC(=O)c1ccccc1)c1cccs1	-0.1	x
CCOC(=O)Nc1c(C(=O)OCC)[nH]c2ccc(F)cc12	0.9	52.6
CCc1ccc(-n2c(SCC(=O)NC3CC3)nc3ccccc3c2=O)cc1	0.7	x
O=C(Nc1ccccc1)Nc1ccccc1SCCS(=O)(=O)c1ccc(Cl)cc1	0.45	0.225
CC(C)(C)C(=O)CNS(=O)(=O)c1ccc(S(=O)(=O)NC2CCCCC2)cc1	-0.7	x
Cn1c(=O)n(Cc2ccccc2)c(=O)c2c1nc(Cl)n2Cc1ccccc1	-0.35	0.425
COC(=O)C1=C(Nc2ccccc2NS(=O)(=O)c2ccc(C(F)(F)F)cc2Cl)CSC1	-0.6	-0.675
C1=C(c2ccccc2)Nc2nc3ccccc3n2C1c1ccccc1 (stereo not drawn)	-0.15	-0.375
CCOC(=O)c1sc2nc(CC(=O)OC)nc(Nc3cc([N+](=O)[O-])ccc3OC)c2c1C	x	-0.285
Cn1nccc1NC(=O)COCC(=O)O	-0.3	-0.32
CCn1cnc2sc(C(=O)N3CCCC(C)C3)c(C)c2c1=O (stereo not drawn)	x	-0.015
CN(N)C(=O)Nc1ccccc1	-0.05	x
O=C(/C=C/c1ccco1)NNC(=O)OCCN1CNC(=S)NC1	x	0.795
N/C(=N\C(=S)Nc1ccccc1)N1CCN(Cc2ccccc2)CC1	-0.3	-0.795
CCN(Cc1ccccc1)C(=O)CSc1nc(C)cc2c1C(=O)OC2	-0.5	0.125
